UCH37 DUB inh: human UCH37 deubiquitinating enzyme inhibition; hit rate 0.33% among 330,000; AID 588478; purified proteasome/UCH37, Ub-AMC cleavage fluorescence; inhibition, % (concentration not given with the values);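 active means mean of two replicates above 20%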;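 further: 0% = compound-free wells with enzyme and 100% = wells lacking proteasome; stock transfer was 100 nL into about 20 µL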
Target sequence (Q9Y5K5 whole entry, looked up): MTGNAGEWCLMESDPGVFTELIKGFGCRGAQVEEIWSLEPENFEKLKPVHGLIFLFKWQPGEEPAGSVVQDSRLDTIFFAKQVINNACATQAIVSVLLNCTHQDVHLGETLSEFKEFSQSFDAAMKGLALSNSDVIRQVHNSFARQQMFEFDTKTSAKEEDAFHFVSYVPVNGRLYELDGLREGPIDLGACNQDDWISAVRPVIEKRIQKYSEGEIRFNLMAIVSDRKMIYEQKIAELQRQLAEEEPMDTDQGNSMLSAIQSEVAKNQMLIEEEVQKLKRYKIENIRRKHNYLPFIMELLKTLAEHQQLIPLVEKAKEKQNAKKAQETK
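System: Proteasome-associated human UCH37 deubiquitinase; Input: 0.15 nM proteasome in added enzyme buffer; Also added: Ub-AMC substrate from 1 µM stock; Incubation: 30 min compound-proteasome preincubation then 25 min substrate reaction, room temperature; Detection: fluorescence, ex 355 nm, em 460 nm; Read-out: % inhibition of Ub-AMC cleavage fluorescence; Benchmarks: no-proteasome and no-compound wells.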
Beta cell apopt: beta cell apoptosis inhibition; protection from apoptosis, % (test concentration not listed); AID 435005; INS-1E cytokine-induced death, ATP luminescence, 48 h; percent of positive-control rescue, neutral wells zero; hit rate 0.8% among 300,000;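 active means all replicates at 75% or more, or half of them and the mean; inconclusive means half reach 75% but not the mean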;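 further: 0% = cytokine-treated negative control wells and 100% = positive control rescue; higher means more ATP so stronger rescue from cytokine killing; wells of about 40 µL received 100 nL stock; the first replicate is given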
Bfl-1 A1 inh: inhibitors of the anti-apoptotic protein A1, read as caspase activation | caspase activation, % (no concentration beside the values) | AID 2462 | MEF A1-2A-BIM cells, Caspase-Glo 3/7 luminescence, 3 h; percent of clofoctol response, vehicle zero | hit rate 0.066% among 330,000;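 active means over half of replicate activation scores above 10%, or exactly half above 10 with the replicate mean above 10; inconclusive means replicate mean below 10 yet half the replicates above 10; inactive means over half of replicates below 10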;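 further: wells of about 30 µL received 50 nL stock; many hits fall short of the cut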
Calb FLC: C. albicans growth modulation with fluconazole; growth inhibition, % (concentration not given with the values); hit rate 0.57% among 300,000; C. albicans CaCi-2 (fluconazole-resistant clinical isolate) + fluconazole, Alamar Blue growth, 48 h;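 active means most replicates above 75%; inconclusive means exactly half above 75%; inactive means most below 75%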;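 further: all wells also contain fluconazole at 8 µg/ml as a sub-toxic cotreatment; 0% = median of DMSO wells and 100% = median of geldanamycin control wells; wells of about 8 µL received 7.5 nL stock; the first replicate is given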
T cruzi repl: T. cruzi replication inhibition | hit rate 1.4% among 300,000 | T. cruzi beta-gal in NIH3T3, luminescence, 90 h | inhibition, % (no concentration beside the values);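 active means mean inhibition across valid replicates above about 55%, limit read from the data; inconclusive means mean below that limit but half or more replicates reach it; inactive means mean below it, under half of replicates reach it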;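 further: signal also drops with host cell toxicity which is not excluded here; 0% = plate median of DMSO wells and 100% = zero luminescence signal; higher percent means less beta-gal luminescence so fewer parasites; stock transfer was 50 nL into about 50 µL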
RanGTP-Imp inh: disruptors of Ran-importin-beta complex formation – biochemical, FRET, CFP-Ran, YFP-importin-beta, homogeneous, primary screen | cell-free CFP-Ran/YFP-importin-beta FRET ratio | inhibition, % (concentration not given with the values) | hit rate 1.1% among 300,000 | AID 2216;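 active means most replicates above 15%; inconclusive means exactly half above 15%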;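 further: 0% = DMSO wells and 100% = Ran loaded with GDP instead of GTP; wells of about 40 µL received 100 nL stock; the first replicate is given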
B2AR ag: human beta-2 adrenergic receptor agonism by FAP | P07550 | Am2.2-beta2AR cells, FAP receptor internalization, flow cytometry; reference of the scale not given here | response, % (test concentration not listed) | hit rate 0.43% among 340,000 | AID 504454;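 active means response above a set limit, near 3 SD of response in nonfluorescent compounds, cut at about 42% in these data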;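 further: stock transfer was 100 nL into about 11 µL; a reference agonist was the positive control; negative values mostly stem from fluorescent compounds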
Target sequence (P07550 whole entry, looked up): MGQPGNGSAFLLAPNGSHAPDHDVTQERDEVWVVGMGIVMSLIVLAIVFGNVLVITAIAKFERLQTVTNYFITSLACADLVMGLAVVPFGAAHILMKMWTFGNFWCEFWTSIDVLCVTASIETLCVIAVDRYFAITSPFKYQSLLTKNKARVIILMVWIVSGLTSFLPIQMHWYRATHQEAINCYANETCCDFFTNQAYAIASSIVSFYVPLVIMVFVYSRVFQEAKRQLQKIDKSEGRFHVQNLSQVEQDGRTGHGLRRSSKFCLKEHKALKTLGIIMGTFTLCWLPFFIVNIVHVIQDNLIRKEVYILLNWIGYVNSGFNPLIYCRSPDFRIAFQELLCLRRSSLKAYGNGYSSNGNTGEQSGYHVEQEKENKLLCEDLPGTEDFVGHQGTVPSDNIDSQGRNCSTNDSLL
LANA-H2A inh: blocks KSHV LANA binding to histone H2A/H2B; cell-free LANA-H2A/H2B peptide, fluorescence polarization; inhibition, % (no concentration beside the values); hit rate 0.6% among 320,000; in the data active means inhibition mostly above about 10%, no sharp cut-off; inactive means mostly below about 6.7%;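 further: stock transfer was 7.5 nL into about 10 µL; 0% = median of vehicle wells and 100% = median of positive control wells; one replicate is shown; the record names a cut of 25% in any replicate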
The depositor's hits bear a star; u = inconclusive; x = not tested or not shown. Hits appear at their usual frequency, and some 4.3% of all compounds hit somewhere here.

SMILES	UCH37 DUB inh	Beta cell apopt	Bfl-1 A1 inh	Calb FLC	T cruzi repl	RanGTP-Imp inh	B2AR ag	LANA-H2A inh
COc1ccccc1CCC(=O)OCC(=O)Nc1cc(C)nn1-c1ccccc1	1.0	5	0.4	-2	-6	x	-1	-4.3
CCOC(=O)N1CCN(C(=S)NC(=O)c2cc(Br)ccc2Cl)CC1	1.5	-6	0.5	8	0	-3.8	-6	0.7
COc1ccc(/C=C2\N=C(SC)SC2=O)cc1OC	5.4	-6	-0.5	2	-2	12	4	-0.6
CCN(CC)S(=O)(=O)c1ccc(NCCc2ccccn2)nc1	-2.5	-6	0.9	-9	-3	-3.1	3	-1.6
CC(OC(=O)c1ccc(NC(=O)CC#N)cc1)C(=O)Nc1ccc(Oc2ccccc2)cc1 (configuration not stated)	x	-1	-0.5	-20	-5	3.5	0	-1.5
O=C(CN1CCN(Cc2ccc(Cl)cc2)CC1)N/N=C/c1ccncc1	x	0	0.2	-6	24	3.5	0	-3.7
Cn1c(SCc2nc(-c3cccs3)no2)nnc1C1CCCCC1	4.0	-5	-0.8	1	-15	-2.7	-6	-2.8
CCn1cc(C(=O)NCc2ccc(Cl)cc2)c(=O)c2cc(S(=O)(=O)N(C)C)ccc21	x	5	-0.4	6	-2	6.8	-10	3.7
CSc1nnnn1-c1c(C)cc(C)cc1C	-1.3	0	-0.2	0	-8	3.2	7	-2.5
CCN(CC)C(=O)c1cnn(-c2ccccc2)c1NC(=O)c1ccco1	4.6	-3	0.3	-2	1	-0.3	3	-1.1
CCc1ccc(OCC(=O)NNC(=O)CSc2ncnc3sc(C)c(C)c23)cc1	1.4	-1	0.5	2	-25	-1.1	3	-0.1
CN(C)S(=O)(=O)c1cccc(COC(=O)CN2CCCCCC2=O)c1	-0.4	-13	0.1	0	12	u	9	-1.2
Cn1nc(C(=O)OCC(=O)N2CCc3ccccc32)c2ccccc2c1=O	3.6	1	0.4	-6	-17	-0.5	-4	-4.3
CC(C)(C)c1ccc(C(=O)c2c[nH]c(C(=O)NCC3CCCO3)c2)cc1 (configuration not stated)	3.7	1	1.0	3	-7	0.2	-2	0.1
COc1cccc(NC(=O)c2cc([N+](=O)[O-])ccc2NC(=O)CNCC2CCCO2)c1 (configuration not stated)	3.2	5	0.5	28	1	6.0	5	2.2
N#CCC(=O)Nc1ccc(C(=O)OCC(=O)N2CCCC2=O)cc1	2.8	-1	-0.3	10	1	-1.4	-6	-4.1
Cc1c(C#N)c(N)c(C(=O)c2ccccc2)n1Cc1ccccc1	8.6	-5	1.6	25	18	-2.2	14	-1.1
COCCCN1CN=C(NS(=O)(=O)c2ccc(C)cc2)NC1	4.2	2	-0.3	4	-4	-1.5	-5	0.9
O=C(c1cccc(C(F)(F)F)c1)c1c[nH]c(C(=O)NCCCN2CCOCC2)c1	1.7	2	0.6	-1	-13	1.5	-10	-1.7
Cc1cc(=O)[nH]c(SCC(=O)N2CCCCC2)n1	2.9	-1	-0.5	3	-13	2.1	-1	-1.8
Cc1nc2nc(SCC(=O)NCc3ccco3)nn2c(C)c1Cc1c(F)cccc1Cl	-0.9	4	-1.2	-28	30	-7.2	-5	-0.1
Cc1cc(OCC(=O)N2CCC(C(N)=O)CC2)c2c(C)cc(=O)oc2c1	-163	3	0.6	1	-12	-3.8	12	2.2
COc1cccc(O)c1CN1CCC(C(=O)Nc2ccc(-c3cccc(C)c3)cc2)CC1	5.2	x	0.5	-7	54	-0.2	33	-0.7
NC(=O)c1cc([N+](=O)[O-])c(Cl)cc1NCc1ccncc1	3.8	-1	-0.6	x	x	x	-6	1.2
O=C(CSCC(=O)N1CCCc2ccccc21)Nc1nc(-c2ccccc2)cs1	4.9	2	0.4	-5	-10	2.7	1	2.6
Cc1nc2ncccn2c1-c1csc(Nc2ccccc2)n1	3.9	9	0.5	16	0	-2.2	17	-5.2
Cc1cc(NC(=O)CSc2nnc(-c3cccnc3)n2C)no1	0.7	-7	0.3	-2	-9	-1.8	3	1.5
CCOC(=O)c1ccc(S(=O)(=O)NNC(=O)COc2ccccc2C)cc1	-0.9	2	0.1	-2	-13	4.6	-2	-2.0
Nc1c(/C=C2/C=CC(=O)C(O)=C2)c(=O)nc2sc(CC(=O)N3CCCC3)nn12	11	-2	-1.0	-4	-7	1.2	-7	2.5
CCOC(=O)N1CCN(C(=O)c2oc3ccc(S(=O)(=O)N4CCOCC4)cc3c2C)CC1	5.6	6	0.2	-7	-2	-1.6	-4	4.7
O=C(CCC(=O)c1cccs1)Nc1ccc(N2CCCCC2)cc1	0.0	-3	0.6	-12	16	u	12	-0.6
CCCCCCCc1nc2nc(C)c(Br)c(=O)n2[nH]1	2.6	-2	-1.9	-2	-3	-1.3	-4	5.2
CCC(C)(C)n1nnnc1C(c1ccc(O)cc1)N1CCc2ccccc2C1 (configuration not stated)	1.4	-6	0.4	-3	-5	-1.7	7	0.7
CCN(CC)c1ccc(/C=N/N2CCN(Cc3ccc(Cl)cc3)CC2)c(O)c1	x	0	-0.2	-1	47	4.8	4	4.2
Cc1nc(-c2nnc(SCC(=O)Nc3ccc(Cl)cc3)n2C)cs1	5.6	-2	-0.2	2	7	-1.7	-9	3.5
C[C@H](NC(=O)c1nc[nH]c1C(=O)NCCCCCN)C(=O)OC(C)(C)C	4.8	2	1.3	-2	-3	1.9	5	4.3
CCN1C(=NCCN2CCOCC2)N[C@@H](c2ccccc2)C(C(=O)OC)=C1C	4.9	1	1.9	5	-6	9.9	-5	-2.3
COc1ccc(C(=O)NC2CCc3ccccc32)cc1OC1CCN(C(C)=O)CC1 (configuration not stated)	-0.8	-9	0.5	-9	-15	2.7	7	-0.9
CCCn1c2ccccc2c2cnn(CC(=O)N3CCN(C4CCCCC4)CC3)c(=O)c21	-7.6	1	0.2	-3	26	1.1	1	1.7
CCOc1ccc(-n2c(SCC(=O)NCc3ccco3)nnc2-c2c[nH]c3ccccc23)cc1	2.1	-3	-0.5	2	-13	-1.7	1	-2.9
O=C(/C=C/c1ccco1)Nc1cccc(NC(=O)/C=C/c2ccco2)n1	x	12	-1.8	-12	-78	5.7	12	-4.9
O=C(N/N=C/c1ccc([N+](=O)[O-])cc1)C(=O)N1CCCC1	x	1	0.2	20	-2	x	-1	3.5
C=C(C)COc1ccc(-c2ncncc2-c2ccccc2)c(O)c1	1.4	-5	0.2	3	-24	-1.5	-13	0.3
Cc1noc(NS(=O)(=O)c2ccc(NC(=O)/C=C/c3ccc(C(C)C)cc3)cc2)c1C	6.6	-10	0.5	x	2	x	12	-4.0
O=C(CSc1nc(NS(=O)(=O)c2ccccc2)cc(=O)[nH]1)Nc1ccccc1Cl	5.9	x	x	14	-3	-3.5	-6	x
N#Cc1ccccc1OCC(=O)OCC(=O)NC1CC1	-0.5	-5	1.1	x	x	x	-5	2.0
CCOc1ccc2nc(SCC(=O)NCc3ccccc3)[nH]c2c1	0.5	-8	2.6	-3	11	-0.2	-14	-1.3
O=C(CCCCn1c(=O)[nH]c2ccsc2c1=O)NCc1ccc2c(c1)OCO2	2.9	-4	-0.9	-1	-9	0.0	-1	6.0
CCOc1ccc(C(CC(=O)O)NC(=O)C(CC)c2ccccc2)cc1 (configuration not stated)	1.5	-8	0.7	3	-17	2.6	-8	6.3
CCOc1ccccc1Nc1nnc(SCc2ccc(C(=O)OC)o2)s1	2.0	-12	-0.8	29	5	2.6	3	-6.3
COc1ccc(N2CC(C(=O)N3CCN(c4ccccc4F)CC3)CC2=O)cc1 (configuration not stated)	2.9	u	1.1	-15	2	6.7	12	5.4
Cc1ccc(S(=O)(=O)N(CC(=O)Nc2ccc(C)c(Cl)c2)C(=O)N2CCN(C)CC2)cc1	1.5	x	x	2	1	-4.9	7	x
COc1ccc(NS(=O)(=O)c2ccc(NS(=O)(=O)c3cccc(C(=O)O)c3)cc2)cc1	4.3	x	1.3	1	-8	-3.8	-1	-1.1
O=C(Nc1ccon1)c1nc[nH]c1C(=O)N1CCN(c2ccccc2)CC1	3.4	-8	0.4	x	x	x	-19	12
CCn1c(=O)c2cc(C(=O)NCCOC)sc2c2ccccc21	-389	0	0.0	0	20	-0.6	2	-2.5
CC1CN(c2oc(-c3ccco3)nc2C#N)CC(C)O1 (configuration not stated)	-22	-2	0.3	7	-10	0.3	-8	-2.0
O=C(CSc1ncnc2c1oc1ccccc12)NCC1CCCO1 (configuration not stated)	2.3	-5	-0.4	5	-10	6.2	-9	-1.5
O=C(O)c1cc(NS(=O)(=O)c2ccc(N3CCOCC3)c([N+](=O)[O-])c2)cc(C(=O)O)c1	2.1	1	0.0	3	-11	3.6	6	1.6
NC(=O)Cn1cnc2c(nnn2-c2cccc(Cl)c2)c1=O	1.2	-2	0.0	4	-20	-1.6	-1	-1.0
c1ccc(-n2c(-c3ccco3)nnc2-c2ccco2)cc1	0.4	11	0.5	-1	-6	0.0	9	-1.0
Continued.
SMILES	UCH37 DUB inh	Beta cell apopt	Bfl-1 A1 inh	Calb FLC	T cruzi repl	RanGTP-Imp inh	B2AR ag	LANA-H2A inh
Cc1ccc2nc(N3C(=O)C(O)=C(C(=O)c4cc5ccccc5o4)C3c3cccs3)sc2c1 (configuration not stated)	x	4	-2.5	43	-12	-0.5	0	0.5
CCOc1ccc(C(=O)NC2CC3CCCC(C2)N3CC(C)C)cc1 (configuration not stated)	x	-9	0.3	7	-6	-1.2	4	1.6
CCOC(=O)C1C(=O)CC(C)(O)C(C(=O)OCC)C1c1cccc(OC(F)(F)C(F)F)c1 (configuration not stated)	1.9	3	-0.3	12	2	-0.4	0	-2.6
CCOC(=O)c1csc(NC(=O)CSc2nnnn2CC)n1	6.3	1	-1.3	-2	-12	0.2	10	-5.2
COc1cccc(/C=C(/C(=O)OCC(N)=O)c2ccccc2)c1	2.9	-3	-0.2	-6	-14	-1.1	-2	9.1
O=C(c1ccccc1)N1CCc2ccccc21	6.4	-5	-0.5	-5	-22	3.6	1	3.2
Cc1ccccc1NC(=O)CSC1=C(C#N)C(c2ccsc2)CC(=O)N1 (configuration not stated)	-1.4	-2	2.1	5	-8	2.0	-3	5.7
Cc1nc2sc3c(c2c(=O)n1N)CCC3	2.1	0	0.6	18	-4	-1.4	-2	-0.3
COc1cccc(/C=N/NC(=O)c2ccc(=O)n(C)c2)c1OC	x	-12	-0.5	-6	-2	-0.2	3	-0.3
NS(=O)(=O)c1ccc(N=Nc2c(O)ccc3ccccc23)cc1	5.3	-6	0.0	33	4	0.1	2	-5.1
O=[N+]([O-])c1cccc(/C=N/N2CCN(c3ccccn3)CC2)c1	x	1	-3.5	-6	9	2.6	-4	1.5
O=C(NCCCn1ccnc1)/C(=C\c1cccnc1)NC(=O)c1cccc(Br)c1	0.4	3	0.3	3	0	u	-3	3.1
COc1ccc(C(C)=O)cc1COc1ccc(-n2cnnn2)cc1	1.1	0	-0.5	1	8	-1.8	-2	5.2

High-throughput results (PubChem BioAssay)
